HPGD inh: qHTS Assay for Inhibitors of HPGD (15-Hydroxyprostaglandin Dehydrogenase); actives 4.3% (n = 150,000); 15-hydroxyprostaglandin dehydrogenase [NAD(+)] (Homo sapiens), P15428; purified HPGD, NADH fluorescence kinetic, PGE2 substrate; AID 894, 2007; Potency, µM, for the others: top-dose activity change, negative = inhibition, hits mostly inhibitors; active = well fitted inhibition curve with a large enough effect (not every such curve was filed as active); inconclusive = small, poorly fitted or top-dose-only effect, or another doubt; inactive = no such curve, though single readings can be large or run the other way;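 further: top concentration of the series not given in the record; plate controls included wells without enzyme; inactives centre near -10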
Target sequence (P15428 whole entry, looked up): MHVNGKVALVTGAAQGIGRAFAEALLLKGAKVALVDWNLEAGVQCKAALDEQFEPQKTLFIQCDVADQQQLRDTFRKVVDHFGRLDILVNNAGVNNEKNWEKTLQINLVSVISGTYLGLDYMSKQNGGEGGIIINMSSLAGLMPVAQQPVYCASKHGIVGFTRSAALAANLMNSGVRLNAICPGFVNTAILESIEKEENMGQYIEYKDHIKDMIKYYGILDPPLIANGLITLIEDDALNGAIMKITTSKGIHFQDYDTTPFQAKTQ
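NADH formation kinetics: reaction with 30 uM PGE2 and 1 mM NAD+ (final), 20 nM enzyme, Tris-HCl pH 8 with Tween 20, after 15 min compound preincubation at room temperature. Fluorescence change, last versus first of five reads.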
Active calls of the source: *; ? = inconclusive; & = joins results of further samples. On the % scale 0 is the no-effect control and ±100 the full control effect; potency means the concentration at half of the fitted maximal effect.

SMILES	HPGD inh
COc1ccc(/C=N/OC/C(O)=C(\C#N)c2nc3ccccc3[nH]2)cc1	-22%
O=C(CSc1ccc2ccccc2n1)N1CCC(c2noc3ccc(F)cc23)CC1	-14%
O=C(Nc1ccc2nsnc2c1)N1CCCCCC1	-14%
COc1cc2c(C(=O)NCc3ccc(C)o3)cn(CC(C)C)c(=O)c2cc1OC	-5%
CC[C@@H](C)CN1C(=O)N[C@@H](c2ccccc2)C(C(=O)OC)=C1C	-1%
COc1ccc(C(=O)N2CCC3(CC2)CCN(c2ccccn2)CC3)cc1	?
CCCc1cc(=O)[nH]c(SCC(=O)NC(=O)OCC)n1	-16%
CCc1nnc(NC(=O)CSc2nc(-c3ccccc3)nc3ccccc23)s1	-12%
COc1cccc(NC(=O)N2CCCC2C(=O)Nc2ccc3c(c2)OCO3)c1 (centres undefined)	-9%
Cc1cccc(N2CCN(C(=O)Cn3ccc4ccccc4c3=O)CC2)c1C	-12%
NC(=O)NC(=O)CSc1nc(C2CCCCC2)n(-c2ccccc2)n1	-8%
CC1(C)C(C=C(Cl)Cl)C1C(=O)N(Cc1cccc(Cl)c1)C1CCS(=O)(=O)C1 (centres undefined)	-5%
CCOC(=O)/C(=N/Nc1ccccc1)N1CCCc2ccccc21	-25%
CN(C)c1ccc(-c2ccc3ncnc(N4CCNCC4)c3c2)cc1	?
CCCCc1ccc(NC(=O)CC(C)(C)C)cc1	14µM*
O=C(Nc1ccccc1C(=O)Nc1ccccc1C(=O)NCc1ccco1)c1ccco1	-24%
Cc1cc(NC(=O)c2cc(-c3cccnc3)nc3c(C)c(C)ccc23)no1	?
Cc1ccc(C2C(C(=O)c3ccco3)=C(O)C(=O)N2c2nnc(C)s2)cc1 (centres undefined)	-17%
Cc1csc(NC(=O)CSc2nsc(SCC(=O)Nc3nc(C)cs3)c2C#N)n1	-28%
Cc1ccc(SCC(=O)Nc2ccc(-c3nnc(-c4ccco4)o3)cc2)cc1	-14%

Structures from the list above that have a cyano group (2):
SMILES	HPGD inh
COc1ccc(/C=N/OC/C(O)=C(\C#N)c2nc3ccccc3[nH]2)cc1	-22%
Cc1csc(NC(=O)CSc2nsc(SCC(=O)Nc3nc(C)cs3)c2C#N)n1	-28%

(continued)
SMILES	HPGD inh
COc1cccc(-c2nc(CS(=O)(=O)CC(=O)NC3CCCc4ccccc43)c(C)o2)c1 (centres undefined)	?
Cc1ccc(S(=O)(=O)N2CCN(c3nc(C)nc4sc(C)c(C)c34)CC2)cc1	-14%
COc1cccc(C(=O)NCC(=O)OCC(=O)c2ccccc2)c1	-18%
CC1CN(C2CC(C)(C)NC(C)(C)C2)CCC1=O (centres undefined)	0%
CCOc1cc(-c2nc(-c3ccc(OC)cc3)no2)cc(OCC)c1OCC	-14%
O=C(C1CCC(CNc2c(N3CCOCC3)c(=O)c2=O)CC1)N1CCN(c2ccccc2)CC1 (centres undefined)	-18%
Cc1ccc(OCCNC(=O)/C=C/c2ccccc2)cc1	-5%
CCOC(=O)Cc1csc(SCn2nnc3ccccc3c2=O)n1	-22%
COc1ccccc1OCCn1c(=O)sc2ccccc21	-9%
O=C(c1cccnc1)N1CCN(C(=O)c2ccco2)CC1	-19%
COc1ccc(N2C(=O)CCC(C(=O)O)C2c2ccc(F)cc2)cc1 (centres undefined)	-10%
CN(C)/N=C/c1c(O)ccc2ccccc12	32µM*
CC(=O)N1CCc2cc(S(=O)(=O)NC(CC(C)C)C(=O)N3CCc4ccccc4C3)ccc21 (centres undefined)	-3%
CCOC(=O)c1ccc(CSc2n[nH]c(C)n2)o1	-8%
O=C(Nc1ccc(-c2nc3ccccc3o2)cc1)C1CCCO1 (centres undefined)	?
CCSc1nc2ccccc2[nH]1	-13%&-20%
C=CCn1c(SCC(=O)Nc2ncc(Cc3ccc(Br)cc3)s2)nnc1-c1ccncc1	-3%
c1ccc(-c2csc(Nc3nc(N4CCOCC4)nc(N4CCOCC4)n3)n2)cc1	3%
CCCCOC(=O)C1[C@H]2C(=O)N(CCc3ccccc3)C[C@]23C=C[C@H]1O3 (some centres undefined)	-7%
CCN(CC)c1ccc(NC(=O)c2ccccc2F)cc1S(=O)(=O)Nc1ccccc1OC	14µM*

An excerpt from above in order of SMILES length, high to low:
SMILES	HPGD inh
CC(=O)N1CCc2cc(S(=O)(=O)NC(CC(C)C)C(=O)N3CCc4ccccc4C3)ccc21 (centres undefined)	-3%
O=C(C1CCC(CNc2c(N3CCOCC3)c(=O)c2=O)CC1)N1CCN(c2ccccc2)CC1 (centres undefined)	-18%
COc1cccc(-c2nc(CS(=O)(=O)CC(=O)NC3CCCc4ccccc43)c(C)o2)c1 (centres undefined)	?
CCCCOC(=O)C1[C@H]2C(=O)N(CCc3ccccc3)C[C@]23C=C[C@H]1O3 (some centres undefined)	-7%
Cc1ccc(S(=O)(=O)N2CCN(c3nc(C)nc4sc(C)c(C)c34)CC2)cc1	-14%
Cc1ccc(C2C(C(=O)c3ccco3)=C(O)C(=O)N2c2nnc(C)s2)cc1 (centres undefined)	-17%
c1ccc(-c2csc(Nc3nc(N4CCOCC4)nc(N4CCOCC4)n3)n2)cc1	3%
Cc1csc(NC(=O)CSc2nsc(SCC(=O)Nc3nc(C)cs3)c2C#N)n1	-28%
Cc1ccc(SCC(=O)Nc2ccc(-c3nnc(-c4ccco4)o3)cc2)cc1	-14%
CCOc1cc(-c2nc(-c3ccc(OC)cc3)no2)cc(OCC)c1OCC	-14%
COc1ccc(N2C(=O)CCC(C(=O)O)C2c2ccc(F)cc2)cc1 (centres undefined)	-10%
COc1cccc(C(=O)NCC(=O)OCC(=O)c2ccccc2)c1	-18%
O=C(Nc1ccc(-c2nc3ccccc3o2)cc1)C1CCCO1 (centres undefined)	?
CCOC(=O)Cc1csc(SCn2nnc3ccccc3c2=O)n1	-22%
O=C(c1cccnc1)N1CCN(C(=O)c2ccco2)CC1	-19%
CC1CN(C2CC(C)(C)NC(C)(C)C2)CCC1=O (centres undefined)	0%
CCOC(=O)c1ccc(CSc2n[nH]c(C)n2)o1	-8%
COc1ccccc1OCCn1c(=O)sc2ccccc21	-9%
CN(C)/N=C/c1c(O)ccc2ccccc12	32µM*
CCSc1nc2ccccc2[nH]1	-13%&-20%

Next compounds follow:
SMILES	HPGD inh
O=C(O)C1C2C=CC(O2)C1C(=O)NCCC1=CCCCC1 (centres undefined)	-10%
Cc1ccccc1Nc1c(N)c(=O)oc2ccccc12	16µM*
Cc1cc(C)nc(NS(=O)(=O)c2ccc(-n3cccc3)cc2)n1	-4%
Cc1ccc(O)c(C(=O)c2cnc3c(c2)CN(CCC(C)C)C(=O)N3)c1	-20%
Cc1cccc2c1N(CCCOc1ccccc1)C(=O)C2=O	28µM*
Cc1ccc2cc(C3C(C#N)=C(N)Oc4c3ccc3cccnc43)c(=O)[nH]c2c1 (centres undefined)	-26%
C/C(=C\C(=O)C(F)(F)F)Nc1ccc(C(F)(F)F)cc1	-4%
CSCCC(Nc1nc2ccccc2s1)C(=O)O (centres undefined)	-2%
CN(C)CCCn1cc(C2=C(c3c[nH]c4ccccc34)C(=O)NC2=O)c2ccccc21	-20%
Cc1cc(=O)[nH]c(SCc2nc3ccccc3n2Cc2ccccc2)n1	28µM*
COc1ccc(/C=N/c2c(-c3ccco3)nc3ccccn23)cc1OC	-29%
CC(C)=CC1C=C(C)C(C)C2C(=O)NNC(=O)C12 (centres undefined)	-9%
CCC(=O)Nc1ccc(NC(=O)c2c(C)nc3ccccn23)cc1	-6%
CCn1c(=O)c(C(=O)NCc2cccnc2)c(O)c2ccccc21	-19%
O=C(CCC1COc2ccccc2O1)Nc1ccc(Cl)cn1 (centres undefined)	-5%
CCCCCc1ccc(-c2ccc(/C=C/C(N)=O)cc2)nc1	?
O=C(Nc1ccc(-c2nc3ccc(NC(=O)c4cccs4)cc3[nH]2)cc1)c1cccs1	?
CCCS(=O)(=O)N1CCN(c2ccccn2)CC1	-12%
O=C(c1ccco1)N1CCN(C(=O)c2cc(-c3ccccn3)nc3ccccc23)CC1	-25%
COc1ccc2c(Cl)c(-c3nnc(SCC(=O)c4ccccc4)n3C)sc2c1	-17%
O=c1c2c(-c3cccs3)csc2ncn1/N=C/c1ccc(OC(F)F)cc1	-15%
CC(C)N1C(=O)CCC1C(=O)NC1CCCC1 (centres undefined)	-7%
COC(=O)C1=C(C)N(CCc2ccc(OC)c(OC)c2)C(=O)C1	-16%
CCC(=O)Nc1cc(SCCO)cc([N+](=O)[O-])c1	-3%
C/C(=N\NC(=O)c1ccc(Cl)cc1)c1cccc(NC(=O)C(C)C)c1	-2%
N=c1c2c(n(Cc3ccc(F)cc3)c3c1CCC3)CCC2	-5%
c1ccc2nc(N3CCOCC3)cnc2c1	-4%
CCOc1ccc(C(=O)NC2CCN(C(=O)Nc3ccccc3OC)CC2)cc1	-12%
Cc1ccc2occ(C(=O)c3ccco3)c(=O)c2c1	-18%
CC1CCN(S(=O)(=O)c2ccc3c(c2)oc(=O)n3CC(=O)N2CCc3ccccc3C2)CC1	-3%
COc1ccccc1N1C(=O)C2C3C=CC(C3)C2(C)C1=O (centres undefined)	-1%
CCOC(=O)c1oc2cccc(OCC(O)CNC(C)C)c2c1C (centres undefined)	?
C[C@@H](C(=O)Nc1ccc2ccccc2c1)[C@H]1C[C@]1(C)[C@H](NC(=O)c1ccccc1)c1ccccc1	-13%
CC(=O)N1CCC2(CC1)CCN(c1ccncc1)CC2	-6%
CC(C)C[C@H](N)CSSC[C@@H](N)CC(C)C	-3%
O=C(CN1CCCCC1)Nc1nnc(-c2ccccc2)s1	-9%
CCOC(=O)c1nnc(-c2ccccc2)nc1NC	-14%
CC(C)C1N(C(=O)CN2CCCC2)CCN1S(=O)(=O)c1ccccc1 (centres undefined)	-2%
O=C(NCCN1CCOCC1)c1csc2c1CCCCC2	-14%
COc1ccc(CCNC(=O)CCS(=O)(=O)c2ccc3c(c2)CCN3C(C)=O)cc1OC	0%
O=C(COC(=O)CCc1nc2ccccc2n1-c1ccccc1)Nc1cccc(Cl)c1	-16%
COc1ccc(CCC(=O)Nc2nc3c(s2)CN(C)CC3)cc1OC	0%
Cc1cccc(N(C(=O)c2csnn2)C(C(=O)NC(C)(C)C)c2ccncc2)c1 (centres undefined)	0%
COc1cc(/C=C(\C#N)C(=O)NC2CCCCC2C)ccc1OS(=O)(=O)c1ccc(C)cc1 (centres undefined)	?
CCOC(=O)c1nnn(-c2nonc2N)c1COc1ccccc1	-7%
COc1cc(CC(=O)NCc2ccc3c(c2)OCO3)cc(OC)c1OC	-9%
CN1C(=O)CC(Sc2ncccc2C(=O)O)C1=O (centres undefined)	-1%
Cc1ccc(N2C(=O)CSC2c2cccnc2)cc1F (centres undefined)	-5%
CCc1cc(C=NC2CCCCC2)c(O)s1	4.5µM*
CCNC(=O)/C(C#N)=C/c1c(N2CCOCC2)nc2ccccn2c1=O	?
CNc1oc(Cc2cccc3ccccc23)nc1C#N	-26%
CCOc1ccc(C(=O)CC(=O)C(=O)NCCc2ccc(OC)c(OC)c2)cc1	?
CN1CCN(c2nc(-c3ccccc3)nc3c2oc2ccccc23)CC1	-14%
Cc1nc(C)c(NC(=O)N2CCc3ccccc32)cc1NC(=O)N1CCc2ccccc21	-4%
COc1ccc(-c2coc3ccc(OC4OC(COC(C)=O)C(OC(C)=O)C(OC(C)=O)C4OC(C)=O)c(OC(C)=O)c3c2=O)cc1 (centres undefined)	-4%
Cc1nc(N2CCOCC2)nc(OCCN2CCOCC2)c1[N+](=O)[O-]	0%
CSCCC(NC(=O)OCc1ccccc1)C(=O)O (centres undefined)	-5%
CCCCN(C)Cc1c(C)[nH]c2c(Cl)cccc2c1=O	?
O=C(Nc1nc(-c2ccc(S(=O)(=O)N3CCOCC3)cc2)cs1)c1ccccc1	-23%
O=C(Cc1ccc(Cl)cc1)N1CCN(C(=O)c2ccco2)CC1	0%

(continued)
SMILES	HPGD inh
COC(=O)C1C(O)=C(C(C)=N)C(=O)CC1(C)C (centres undefined)	-3%
CCN(CC)C(=O)CC(c1ccc(F)cc1)c1ccc(OC)cc1 (centres undefined)	?
CC(C)C(NS(=O)(=O)c1cccs1)C(=O)Nc1nc(C(C)(C)C)cs1 (centres undefined)	-12%
O=C(Nc1cccc(F)c1)N1CCCC2(CCN(C(=O)c3cccc(F)c3)CC2)C1	-9%
COc1ccccc1CNC(=O)CCNC(=O)Cn1ccc2ccccc2c1=O	-7%
CC(C)C(=O)N1N=C(c2ccc(NS(C)(=O)=O)cc2)CC1c1cccs1 (centres undefined)	?
NCc1cccc(-n2cccn2)c1	-6%
c1cc(-c2cccs2)nc(-c2cccs2)c1	?
Cc1cccc(CCNC(=O)C2CCN(S(=O)(=O)c3cccc4nsnc34)CC2)c1	-4%
Cc1c(C(=O)COC(C)(C)C)[nH]c2ccccc12	4.5µM*
Cc1nn(-c2ccccc2)c(N2CCCC2)c1/C=N/Nc1ccc(S(N)(=O)=O)cc1[N+](=O)[O-]	-15%
O=C(COc1ccc(Br)cc1)N/N=C1\SCC(=O)N1c1ccc(F)cc1	2%
COc1ccccc1NS(=O)(=O)c1cccc(N2CC(O)=C(c3ccccc3)C2=N)c1	-5%
COc1cccc(OCC(=O)Nc2ccccc2NC(C)=O)c1	-5%
O=C(Nc1cccc(-c2cn3ccccc3n2)c1)c1cc2ccccc2oc1=O	-24%
C/C(=N\NC(=O)CN(c1ccccc1)S(=O)(=O)c1ccccc1[N+](=O)[O-])C(C)(C)C	-8%
CCCCN(C)C(=O)C1CCC(=O)N(c2cc(OC)c(OC)c(OC)c2)C1c1ccc(OC)cc1 (centres undefined)	-16%
CCOC(=O)N1CCN(S(=O)(=O)c2ccc(F)cc2)CC1	-4%
COC(=O)c1ccc(N=NNc2cccc(Br)c2)cc1	-13%
CCOC(=O)Cc1csc(NC(=O)Nc2cccc(Cl)c2)n1	-4%
CC1CCN(S(=O)(=O)Cc2ccccc2Cl)CC1	-7%
O=C(O)CSc1ccn(Cc2ccccc2)c1	-16%
Clc1ccc(CSc2ncn[nH]2)cc1	-1%
COc1ccc(C(=O)N2CCCc3ccccc32)cc1	-22%

These rows are one share of the data. The share of hits here may be higher or lower than overall.
